StopGo reporter – lowers the luciferase signal of an FMDV 2A StopGo reporter; human cells with a luciferase reporter of 2A StopGo recoding; control for the full effect not named in the record; Potency, µM (doses to about 57.9 µM), for the others: at the top dose signal change, negative = less light; 410,000 compounds, 1.2% hits; AID 1159524; active = well fitted falling curve with a large enough effect; inconclusive = small, poorly fitted or top-dose-only effect; inactive = no such curve, though single readings can be large or run the other way; tested in HEK293T cells; note: nearly all actives have a fitted effect of over 45% in size; luciferase light after 4 h
RE007 growth inh – less growth of the S. pombe RE007 Vpr strain; 360,000 compounds, 0.21% hits; S. pombe RE007 Vpr strain, BacTiter-Glo ATP luminescence, 24 h; control for the full effect not named in the record; AID 651644; Potency, µM (highest dose often 92.2 µM), for inactives: top-dose activity change, negative = less growth; active = well fitted falling curve with a large enough effect; inconclusive = small, poorly fitted or top-dose-only effect; inactive = no such curve, though single readings can be large or run the other way;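 note: nearly all actives have a fitted effect of over 50% in size; the assay follows cell death caused by Vpr and the record does not say whether a fall means rescue or toxicity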
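Fission yeast RE007 carrying one integrated HIV-1 vpr copy, seeded at OD 0.01 in PMG+AL medium with 23 nL pinned compound. Grown 24 h at 30 degrees; viability read by BacTiter-Glo luminescence after 5 min.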
Numbers without * were called inactive; ? = inconclusive; [ ] = dose if it differs, or a comment. % is set by controls: 0 for no effect and ±100 for the full control effect; potency is the fitted concentration of half-maximal effect.

1) CCOC(=O)/C=C/c1ccc2c(c1)S(=O)(=O)N(c1cccc(OC)c1)[C@H]2CC(=O)OCC
2) Cc1onc(-c2ccccc2Cl)c1C(=O)N[C@@H](C)c1ccccc1
3) COc1ccc(C2C=CC(=O)CC2)c(OC)c1 (stereo not drawn)
4) O=C(OCc1cn([C@H]2CN(Cc3cccs3)[C@@H](c3ccccc3)C[C@@H]2O)nn1)c1ccccc1
5) COc1ccc(C(=O)N2CCCCC2c2cc(C(=O)NCc3ccc(F)cc3)no2)cc1 (stereo not drawn)
6) O=C(COC(=O)CCNS(=O)(=O)c1ccc(Cl)cc1)NCc1ccccc1
7) CC(C(=O)NC1CCCC1)n1c(-c2ccncc2)nc2ccccc21 (stereo not drawn)
8) CCc1nc2c(OCc3cccc(Cl)c3)cccn2c1N(C)C(=O)Nc1ccccc1OC

Compound,1,2,3,4,5,6,7,8
StopGo reporter,8%,-8%,?,-22%,-13%,-15%,-13%,-24%
RE007 growth inh,-15%,-19%,-17%,7%,3%,-1%,4%,-5%

9) CCC/C=C/c1ccc(CN2C(C(C)C)C(=O)N(Cc3cn(Cc4ccco4)nn3)CCS2(=O)=O)cc1 (stereo not drawn)
10) COC(=O)[C@@]12C[C@@H](CC(=O)NCc3cccs3)C(=O)N(CCc3ccc(OC)c(OC)c3)C1=CCC(C)(C)C2
11) CC(=O)Nc1ccc(-c2ccnc3c2CC(C)(C(=O)NCC2CC2)O3)cc1 (stereo not drawn)
12) CC(C)c1ccc(CN2CCC2(C)C(=O)Nc2ccc3c(c2)OCO3)cc1 (stereo not drawn)
13) CCNC(=O)C1(C)CCCN(C(=O)c2ccc3sccc3c2)C1 (stereo not drawn)
14) Nc1cc(C(=O)N2CCN(c3cccc(Cl)c3)CC2)ccc1N1CC2CC(C1)c1cccc(=O)n1C2 (stereo not drawn)
15) CC1(c2nnnn2Cc2ccccc2)CCC(=O)N1CC(F)(F)F (stereo not drawn)
16) C=CCNC(=O)c1onc(CSc2ccc(F)c(F)c2)c1C(=O)NCC=C

Compound,9,10,11,12,13,14,15,16
StopGo reporter,0%,-7%,-22%,-24%,-10%,-15%,-19%,-12%
RE007 growth inh,-17%,0%,-3%,-12%,-12%,-13%,16%,4%

17) O=C(CSc1ccc(Cl)cc1)NC1CC1
18) O=C(NCc1ccccc1Cl)[C@H]1CCCN1C(=O)[C@H]1CCCN1C(=O)c1cccs1
19) COCCNc1nc(Oc2cccc(NC(C)=O)c2)c2sccc2n1
20) O=C(Nc1ccn(CCCNCc2cccc3ccccc23)c(=O)n1)OCc1ccccc1
21) CCOC(=O)O[C@]1(C(=O)COC(=O)CC)CC[C@H]2[C@@H]3CCC4=CC(=O)C=C[C@]4(C)[C@H]3[C@@H](O)C[C@@]21C
22) CN1OC[C@@H]2CN(S(=O)(=O)c3ccccc3)[C@H](c3cccc(Br)c3)C[C@@H]21
23) COc1ccc(S(=O)(=O)N2CCN(Cc3ccccc3OC)CC2)cc1
24) COc1ccc(NC(=O)c2cc(-c3cc(F)ccc3OC)n[nH]2)c(C)c1

Compound,17,18,19,20,21,22,23,24
StopGo reporter,12%,-20%,-14%,-1%,-20%,-18%,-16%,0%
RE007 growth inh,-6%,3%,0%,-6%,-2%[18.4 µM],-12%,-1%,-27%

The last 3 records of the part before lead into the next:
22) CN1OC[C@@H]2CN(S(=O)(=O)c3ccccc3)[C@H](c3cccc(Br)c3)C[C@@H]21
23) COc1ccc(S(=O)(=O)N2CCN(Cc3ccccc3OC)CC2)cc1
24) COc1ccc(NC(=O)c2cc(-c3cc(F)ccc3OC)n[nH]2)c(C)c1
25) OC(c1ccc(Cl)cc1)c1ncc(-c2cccc(C(F)(F)F)c2)[nH]1 (stereo not drawn)
26) Cc1cc(C)n2c(Nc3c(C)cccc3C)c(CC(C)C)nc2n1
27) CCCN(C)C1CN(Cc2cn(Cc3ccccc3)nn2)S(=O)(=O)C1 (stereo not drawn)
28) CC(C)NC(=O)Nc1ccc2c(c1)C(=O)N([C@H](C)CO)C[C@H](C)[C@@H](CN(C)Cc1ccc(C(F)(F)F)cc1)OCCCC[C@H](C)O2
29) CCCCOCCCNC(=O)C[C@@H]1C[C@@]2(C(=O)OC)CC(C)(C)CC=C2N(Cc2ccccc2)C1=O
30) CCC(CC)C(C(=O)NC1CCCC1)N1CCN(c2cc(C)nc3ccccc23)CC1 (stereo not drawn)
31) C#CCNC(=O)C[C@@H]1C[C@@]2(C(=O)OC)CCCCC=C2N(Cc2ccccc2)C1=O
32) CCNC(=O)c1cc2c(c(-c3cccc(-c4cccnc4)c3)n1)[C@H](CCO)N(S(C)(=O)=O)C2

Compound,22,23,24,25,26,27,28,29,30,31,32
StopGo reporter,-18%,-16%,0%,36%[activator],-12%,-10%,-26%,-4%,-22%,-6%,-19%
RE007 growth inh,-12%,-1%,-27%,1%[18.4 µM],-21%,0%,3%,-4%,?,-7%,1%

33) CC(=O)c1cccc(NC(=O)c2cccc3c(-c4cccc(C(N)=O)c4)coc23)c1
34) COc1cccc(N2[C@@H](CC(C)=O)c3cc(C(F)(F)F)ccc3S2(=O)=O)c1
35) COc1ccccc1C(C(=O)c1ccccc1)c1ccc(O)cc1 (stereo not drawn)
36) C#CCn1cc2c(c1-c1ccccc1)c(=O)n(C)c(=O)n2C
37) Cc1ccc(NC(=S)/C(C#N)=C2/Nc3ccccc3S2)cc1
38) CCCCN1CC(C)(C)[C@H](CC(=O)NC)C1=O
39) CC(C)COC(=O)N(C)C[C@@H]1OCc2cnnn2CCCC(=O)N([C@@H](C)CO)C[C@H]1C
40) COc1ccc(NC(=O)C2c3ccccc3OCC(=O)N2CCc2ccccc2)cc1 (stereo not drawn)

Compound,33,34,35,36,37,38,39,40
StopGo reporter,35µM*,34%[activator],-18%,?,?,-1%,-3%,-8%
RE007 growth inh,3%,22%,0%,7%,-15%,1%,4%,-8%

A draw from above in order of molecular weight, smallest number first.
33) CC(=O)c1cccc(NC(=O)c2cccc3c(-c4cccc(C(N)=O)c4)coc23)c1
34) COc1cccc(N2[C@@H](CC(C)=O)c3cc(C(F)(F)F)ccc3S2(=O)=O)c1
39) CC(C)COC(=O)N(C)C[C@@H]1OCc2cnnn2CCCC(=O)N([C@@H](C)CO)C[C@H]1C

Compound,33,34,39
StopGo reporter,35µM*,34%[activator],-3%
RE007 growth inh,3%,22%,4%

(more compounds)
41) CCNC(=O)C1CCCN(C(=O)c2ccc(N(C)C)cc2)CC1 (stereo not drawn)
42) N#Cc1ccc2c(=O)n(-c3ccccc3)sc2c1
43) CCOC(=O)[C@]12CCCC=C1N(Cc1ccco1)C(=O)[C@H](CC(=O)N1CCN(C(=O)c3ccco3)CC1)C2
44) NC(=O)c1ncn([C@@H]2O[C@H](CNCc3ccccc3C#Cc3ccccc3)[C@@H](O)[C@H]2O)n1
45) CCCCn1nnnc1C(c1ccccc1)N1CCN(c2ccc(C)cc2)CC1 (stereo not drawn)
46) O=C1NC[C@@H](CCCCN2C[C@H](Cc3ccccc3)N(Cc3ccccc3)C(=O)C2=O)N(CCc2ccccc2)C1=O
47) O=C(NC(c1ccc(-c2ccccc2)cc1)c1cnccn1)C1CCN(Cc2ccc(Cl)c(Cl)c2)CC1 (stereo not drawn)
48) COc1ccc(-c2cc3nc(NCc4ccc(C)cc4C)n(C)c(=O)c3s2)cc1OC

Compound,41,42,43,44,45,46,47,48
StopGo reporter,-8%,38%[activator],-12%,-22%,-7%,42%[activator],-10%,?
RE007 growth inh,-6%[18.4 µM],10µM*,-11%,-1%,-22%,10%,8%[18.4 µM],4%[18.4 µM]

49) C[C@H](CO)N1C[C@H](C)[C@H](CN(C)C(=O)c2ccccn2)Oc2cc(C#Cc3ccc(F)cc3)ccc2S1(=O)=O
50) C[C@H](CO)N1C[C@H](C)[C@H](CN(C)C(=O)Nc2ccc(F)cc2)OCc2ccccc2-c2c(n(C)c3ccccc23)C1=O
51) CCOC(=O)CNC(=O)CSc1nc(C(C)C)nc2c1cnn2-c1ccccc1
52) O=C(C(=O)N1CCC(Cc2ccccc2)CC1)c1cccs1
53) CCOCCCNC(=O)Cn1nc(-c2ccc(OC)c(OC)c2)ccc1=O
54) Fc1cccc(Cc2c(-c3cccc(Cl)c3)nc3c(Cl)cc(C(F)(F)F)cn23)c1
55) NC(CO)c1csc(Nc2ccc(C(=O)c3ccccc3)cc2)n1 (stereo not drawn)
56) Cc1ccc(-c2nc3c4ccccc4ccn3c2Cc2ccccc2)cc1

Compound,49,50,51,52,53,54,55,56
StopGo reporter,-16%,-15%,-26%,2%,0%,27%,6%,10%
RE007 growth inh,-13%,-2%,1%,-4%,-18%,-7%,4%,-14%

57) CNc1cncc(-c2cccc(C(C)=O)c2)n1
58) N#CN=CN1CC=C(c2ccc(Cl)cc2)CC1
59) CN1CCCC(C(=O)Nc2cccc(Cl)c2)CC1 (stereo not drawn)
60) COC(=O)C1=C2c3[nH]c4ccccc4c3CCN2C(=O)CC1
61) COc1cccc(S(=O)(=O)Nc2ccc3c(c2)C(=O)N(C)C[C@H](OC)[C@H](C)CN(Cc2ccccc2F)[C@@H](C)CO3)c1
62) Cn1nc(C(C)(C)C)cc1N1C(=O)CCC1(C)C(=O)NCc1ccccc1 (stereo not drawn)
63) Cc1c(C(=O)NCc2ccccc2C(F)(F)F)sc(=O)n1Cc1ccccc1C#N
64) CCOC(=O)CCCCCC(=O)Nc1ccc2c(c1)C(=O)N([C@@H](C)CO)C[C@@H](C)[C@H](CN(C)C(=O)Nc1ccccc1)OCCCC[C@H](C)O2

Compound,57,58,59,60,61,62,63,64
StopGo reporter,19%,-2%,-16%,-18%,-12%,-9%,-22%,-10%
RE007 growth inh,-14%,1%,-3%,4%,-2%,-5%,-9%[18.4 µM],4%

65) COC(=O)C[C@H]1c2ccccc2S(=O)(=O)N1c1cccc(OC)c1
66) COCCN1C(=O)CSCC1(C)C(=O)NCc1ccccc1 (stereo not drawn)
67) CCCCC[C@@H]1CCCCC[C@H](O)C[C@@H](O)[C@@H](O)/C=C/C(=O)O1
68) CN(C)S(=O)(=O)c1cccc(NC(=O)c2ccccc2SCC(=O)N2CCCC2)c1
69) CCCCC(=O)N(C)c1c(CC)nc2c(OCc3ccc(Cl)cc3Cl)cccn12
70) CN(Cc1ccc(Cl)c(Cl)c1)C(c1cc2ccccc2o1)c1nnnn1C(C)(C)C (stereo not drawn)
71) CN1OC[C@@H]2CN(S(=O)(=O)c3ccccc3)[C@H](c3ccc(N4CCCCC4)cc3)C[C@@H]21
72) COC[C@@H]1CCCN1[C@H]1CS(=O)(=O)N[C@@H]1COCc1ccccc1

Compound,65,66,67,68,69,70,71,72
StopGo reporter,-6%,-1%,?,-1%,-24%,22µM*,-4%,-3%
RE007 growth inh,-11%,0%,8%,-15%,-6%[18.4 µM],2%,29%,6%

Numbers 65 through 66, reprinted for reference:
65) COC(=O)C[C@H]1c2ccccc2S(=O)(=O)N1c1cccc(OC)c1
66) COCCN1C(=O)CSCC1(C)C(=O)NCc1ccccc1 (stereo not drawn)

Compound,65,66
StopGo reporter,-6%,-1%
RE007 growth inh,-11%,0%

Continuation:
73) COc1ccc(-c2nc3c(c(SCC(=O)N4CCCC4)n2)COC(C)(C)C3)cc1
74) CCCCCCNC(=O)O[C@H]1CN(C(=O)OC(C)C)N(C(=O)OC(C)C)[C@@H]2CN(S(=O)(=O)c3ccc(C)cc3)C[C@]12O
75) C[C@@H]1COc2cccc(N3CCN(Cc4ccccc4F)CC3)c2S(=O)(=O)N1
76) COc1ccc(-c2cc(C(=O)NCc3ccc(F)cc3)[nH]n2)c(C)c1
77) CCCCC(=O)N(C)c1c(C)nc2ccc(C(=O)NCCN(C)C)cn12

Compound,73,74,75,76,77
StopGo reporter,17%,?,-10%,15%,0%
RE007 growth inh,2%,-1%,-14%,-4%,2%

The list is partial; rates above refer to the full screens.
